VDR inhibitor: blocks the human vitamin D receptor | P11473 | VDR-SRC2-3 peptide fluorescence polarization, 2 h | Potency, µM, for the others: max response, negative = inhibition, most hits filed as inhibitors | 400,000 tested, 0.93% active | AID 504847; active means well fitted inhibition curve with a large enough effect; inconclusive means small, poorly fitted or top-dose-only effect, or another doubt; inactive means no such curve, though single readings can be large or run the other way; further: series mostly up to about 120 µM
Target sequence (P11473 whole entry, looked up): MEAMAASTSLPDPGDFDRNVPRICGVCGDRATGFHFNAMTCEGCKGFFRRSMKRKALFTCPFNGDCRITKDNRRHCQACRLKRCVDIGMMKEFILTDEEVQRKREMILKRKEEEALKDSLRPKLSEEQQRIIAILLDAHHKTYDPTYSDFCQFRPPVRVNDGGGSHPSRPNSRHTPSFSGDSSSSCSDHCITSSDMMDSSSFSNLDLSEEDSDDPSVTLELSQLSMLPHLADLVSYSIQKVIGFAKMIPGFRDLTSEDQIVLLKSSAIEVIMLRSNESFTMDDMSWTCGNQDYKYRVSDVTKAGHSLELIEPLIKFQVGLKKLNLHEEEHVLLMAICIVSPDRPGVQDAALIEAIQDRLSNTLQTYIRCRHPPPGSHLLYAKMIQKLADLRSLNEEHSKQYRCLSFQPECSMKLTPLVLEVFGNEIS
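After 23 nl compound addition and a short centrifugation, plates sat for 2 hours at ambient temperature; polarization of fluorescence then indicated loss of VDR binding to peptide SRC2-3.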
Starred values were filed as active, the others as inactive; u = inconclusive; & = joins results of further samples. On the % scale 0 is the no-effect control and ±100 the full control effect; potency means the concentration at half of the fitted maximal effect.

VDR inhibitor	SMILES
0.7%	CN(C)c1ccc(/C=N/NC(=O)CNC(=O)c2ccc3c(c2)OCCO3)cc1
u	Oc1ccc2ccccc2c1CNc1ccc(Br)cc1
2.5%	O=C(Nc1cccc(NC(=O)c2ccccc2Cl)c1)c1ccc([N+](=O)[O-])o1
-0.1%	CCc1ccc(OCC(=O)Nc2cc(-c3nc4cc(C)ccc4o3)ccc2C)cc1
-3.4%	COc1ccc(OCc2nnc(SCC(=O)Nc3nnc(C4CC4)s3)n2C)cc1
15.4%	Cc1cc(C(=O)CSc2ccc(Cl)cc2)cc(C)c1OC(=S)N(C)C
14.5%	Cc1cc(C)n2nc(SCn3nnc4ccccc4c3=O)nc2n1
1.0%	Cn1ccnc1SCC(=O)Nc1cccc(S(=O)(=O)N2CCCCCC2)c1
-1.6%	COc1ccccc1CC(=O)N1CCN(C(=O)c2ccco2)CC1
-10.9%	Cc1ccccc1N1CCN(C(=O)C2CCC(=O)N(C3CCCC3)C2)CC1 (stereo not drawn)
-22.1%	CCOc1ccc(NS(=O)(=O)c2ccc3c(c2)n(C)c(=O)n3C)cc1
9.4%	CCCC(=O)NNC(=O)Nc1ccccc1
-4.8%	CCCCCCn1c(N2CCCC2)nc2c1c(=O)n(C)c(=O)n2C
0.5%	O=C(Nc1ccc(Cl)cn1)c1ccccc1[N+](=O)[O-]
-16.6%	CCC1(C)C(Nc2c(C)cccc2C)=NC(=S)N1c1ccc(NC(C)=O)cc1 (stereo not drawn)
6.9%	Cc1ccc(N(C(C)C(=O)Nc2c(C)n(C)n(-c3ccccc3)c2=O)S(C)(=O)=O)cc1C (stereo not drawn)
u	N#Cc1ccc(C(=O)OCC(=O)Nc2cccc(S(=O)(=O)NC3=NCCC3)c2)cc1
-7.6%	Cc1ccc(SCc2ccc(C(=O)Nc3nccs3)o2)cc1
-9.9%	COc1cccc(-c2nnc(SCC(=O)OC(C)C)n2N)c1
-21.8%	CC(CCc1ccccc1)NC(=O)CCC(=O)N1CCC(C(=O)O)CC1 (stereo not drawn)
-11.4%	CCC(c1nnnn1CCOC)N1CCN(Cc2ccccc2)CC1 (stereo not drawn)
-9.8%	COc1ccc(/C=N/NC(=O)c2cc(-c3ccccc3)nc3ccccc23)c(OC)c1
1.3%	Cc1ccc(S(=O)(=O)N2CCCN(S(=O)(=O)c3ccc(C(F)(F)F)cc3)CC2)cc1
3.0%	O=C(O)c1cccc(Oc2ccc([N+](=O)[O-])cc2)c1
17.9%	Cc1cccn2c3c(c(=O)nc12)C(c1ccc(F)cc1)CC(=O)N3 (stereo not drawn)
-18.9%	C=C(C)c1ccccc1
-21.8%	Cc1ccc(S(=O)(=O)N(C)CC(=O)Oc2ccc(-c3nnco3)cc2)cc1
7.4%	CCN(C(=O)CSc1nc2cc(Cl)ccc2c(=O)n1Cc1ccco1)C1CCS(=O)(=O)C1 (stereo not drawn)
2.8%	O=C(NC(=S)Nc1ncccn1)c1ccccc1Br
8.8%	CC(NC(=O)[C@H](C)NC(=O)[C@@H]1CSC2c3ccccc3C(=O)N21)c1ccccc1 (stereo partly drawn)
2.4%	CC(=O)Nc1ccc(S(=O)(=O)N(C)CC(=O)OCC(=O)N(C)c2ccccc2)cc1
-9.5%	CCOC(=O)C(=O)Nc1cccc(C(=O)OCC)c1
13.7%	O=C(c1cccc(Cl)c1)N1CCN(Cc2ccccc2F)CC1
-5.7%	CC(C)CCNC(=O)[C@@H](NC(=O)c1c(F)cccc1F)C(C)C
13.6%	O=C1CC(c2ccccc2)SC(N(c2ccccc2)c2ccccc2)=N1 (stereo not drawn)
14.2%	CCc1ccc2[nH]c(=O)c(CN(CCCN3CCOCC3)C(=O)Nc3ccccc3)cc2c1
5.4%	CCn1cc(CN2CCc3c([nH]c4ccccc34)C2c2ccc(F)c(OC)c2)c(C)n1 (stereo not drawn)
-11.7%	O=C(CCC(=O)OCC(=O)c1ccc(C(F)(F)F)cc1)OCC(=O)c1ccc(C(F)(F)F)cc1
-0.5%	FC(F)(F)c1cccc(Cn2nnnc2-c2ccc(Cl)cc2)c1
18.7%	COc1ccc(NS(=O)(=O)c2cccc(C(=O)OCC(=O)Nc3cc(C)on3)c2)cc1
-24.4%	COc1ccc(S(=O)(=O)N2CCN(c3nn(C)c(=O)n(C)c3=O)CC2)cc1
5.0%	CC1(C)OC(=O)C(=NNc2ccc(Cl)cc2)C(=O)O1
-12.3%	CCn1c(Cc2ccccc2)nnc1SCC(=O)NC1CCCC1
-9.8%	CN(C(=O)c1cccc(NC(=O)Cc2ccc(NC(=O)C3CCN(C(=O)C4CCCCC4)CC3)cc2)c1)C1CCCCC1
6.7%	Cc1c(CCNC(=O)Cc2ccc(F)cc2)sc2nc(-c3ccc(F)cc3)nn12
1.7%	CCc1nnc(NC(=O)CSc2nc3ccccc3s2)s1
2.2%	COc1ccc(OC)c(NC(=O)CSc2nc(N)c(-c3ccccc3)c(=O)[nH]2)c1
2.7%	CCOC(=O)CSc1nnc(Cc2ccc(OC)cc2)n1-c1ccccc1

Next part, starting with the last seven of the part before.
VDR inhibitor	SMILES
5.0%	CC1(C)OC(=O)C(=NNc2ccc(Cl)cc2)C(=O)O1
-12.3%	CCn1c(Cc2ccccc2)nnc1SCC(=O)NC1CCCC1
-9.8%	CN(C(=O)c1cccc(NC(=O)Cc2ccc(NC(=O)C3CCN(C(=O)C4CCCCC4)CC3)cc2)c1)C1CCCCC1
6.7%	Cc1c(CCNC(=O)Cc2ccc(F)cc2)sc2nc(-c3ccc(F)cc3)nn12
1.7%	CCc1nnc(NC(=O)CSc2nc3ccccc3s2)s1
2.2%	COc1ccc(OC)c(NC(=O)CSc2nc(N)c(-c3ccccc3)c(=O)[nH]2)c1
2.7%	CCOC(=O)CSc1nnc(Cc2ccc(OC)cc2)n1-c1ccccc1
-22.4%	CN(C)CCC(=O)N1c2ccccc2Sc2ccc(C(F)(F)F)cc21
u	NS(=O)(=O)c1ccc(-c2ccc(/C=C3\SC(=S)N(C4CCS(=O)(=O)C4)C3=O)o2)cc1 (stereo not drawn)
3.6%	Cc1ccc2[nH]c(=O)c(CN(CC3CCCO3)S(=O)(=O)c3cccc4nsnc34)cc2c1 (stereo not drawn)
1.0%&-16.0%	COc1ccc(N2CCN(CC(O)COc3c(OC)cccc3OC)CC2)cc1 (stereo not drawn)
-9.5%	CCCCOc1cccc(C2C(C(=O)c3ccc(C)o3)=C(O)C(=O)N2c2nnc(C)s2)c1 (stereo not drawn)
5.2%	Cc1cccc([C@@H]2[C@@H]3C(=O)N(Cc4ccccc4)C(=O)[C@@H]3[C@]3(CC(C)C)C(=O)N(c4cccc(Cl)c4)C(=O)N23)c1
9.4%	COc1ccc(C[C@](C)(N)C(=O)O)cc1OC
15.3%	O=C(Nc1nnc(-c2ccccc2Cl)s1)c1ccccc1F
1.6%	Cc1ccc(C(=O)CCC(=O)Nc2cccc(C(F)(F)F)c2)cc1C
-13.1%	C=CCn1c(Cc2cccs2)nnc1SCC(=O)Nc1ccc(OC)c(OC)c1
2.1%	Cc1ccc(SCCNC(=O)CN(c2cccc(C)c2C)S(C)(=O)=O)cc1
-16.5%	C=CCNc1c2c(nc3ncnn13)CC(C)CC2 (stereo not drawn)
-13.3%	C=CCOC(=O)N[C@@H](CC(C)C)/C(C(=O)OC)=C(\C)NCc1ccccc1
-7.1%	COCCN(C(=O)CSc1nc2ccc(OC)cc2[nH]1)c1c(N)n(Cc2ccccc2)c(=O)[nH]c1=O
-3.7%	O=C(CCN1C(=O)/C(=C/c2ccccc2)SC1=S)N1CCCCCC1
-2.1%	CCOC(=O)c1sc(=NC(=O)c2ccccc2Br)n(C)c1C
4.3%	CC1CCN(S(=O)(=O)c2ccc3c(c2)oc(=O)n3C)CC1
-9.5%	CC(C)Nc1nc(-c2ccccc2)nnc1-c1ccccc1
-11.9%	COc1ccccc1OCCn1nnc2ccccc21
4.1%	Cc1ccccc1CCNC(=O)c1ccc2c(c1)c(C)c(C)n2C
5.6%	CCN(CC)C(=O)COc1ccc(/C(C)=N/NC(=O)c2ccccc2-n2cccc2)cc1
4.5%	Cc1ccccc1C(=O)NCCCn1ccnc1
7.3%	CCN1CCN(CCNC(=O)Nc2ccc([N+](=O)[O-])cc2)CC1
-8.3%	CCn1nc(C)cc1C(=O)N1CCCC(C(=O)c2ccccc2SC)C1 (stereo not drawn)
16.6%	O=C(COC(=O)c1cccs1)c1ccccc1
-0.8%	COc1ccc(OC)c(NS(=O)(=O)c2ccc(-c3coc(C)n3)cc2)c1
1.3%	O=C(NCc1ccccn1)Nc1ccccc1C(F)(F)F
-7.4%	COc1ccc2[nH]c(C)c(C(=O)CN3CCN(C/C=C/c4ccccc4)CC3)c2c1
10.8%	COc1ccc(Cl)cc1NC(=S)N1CCCC1
7.9%	CC(=O)c1ccc(N2CCN(C(=O)c3cc(S(=O)(=O)N4CCCCCC4)cn3C)CC2)cc1
4.2%	COc1ccc(CCNC(=O)c2ccc(CS(=O)(=O)c3ccc(Cl)cc3)o2)cc1OC
16.6%	COc1ccc(NC(=S)N2CCN(C/C=C/c3ccccc3)CC2)cc1
-3.4%	Cc1ccc2c(c1)C1CN(C)CCC1N2CC(=O)N(C)c1ccccc1 (stereo not drawn)
-9.3%	Nc1nc(-c2ccccc2)cs1
19.9%	Cc1ccccc1NC(=O)NCC1CCN(Cc2cccc(Cl)c2)CC1
12.8%	OCC[C@@H]1C[C@@H](O)[C@H](O)[C@]2(OCCCc3ccccc32)O1
13.6%	Cc1cccc(OC(=O)c2snnc2C)c1
-2.2%	CCOc1ccccc1N(CC(=O)NC1CCCCC1)C(=O)c1nsc(Cl)c1Cl
-11.4%	COc1ccccc1CNS(=O)(=O)c1cc(C(=O)N(C)Cc2cccnc2)c(Cl)cc1Cl
2.9%	COC(=O)Cn1c(=NC(=O)C(C)C)sc2c(C)cc(C)cc21
-3.7%	CCOCCCN(C)C1CCN(C(=O)c2oc3ccccc3c2NC(=O)Cc2ccc([N+](=O)[O-])cc2)CC1
13.5%	O=C(CCc1ccccn1)N1CCCC(N2CCN(c3cccc(C(F)(F)F)c3)CC2)C1 (stereo not drawn)
14.0%	CC[C@@H]1[C@H]2CCCC(=O)N3CC[C@@H](C[C@H]1O)[C@@H]23
-15.9%	NNc1nc(-c2ccccc2)nc2sc3c(c12)CCCC3
-0.3%	COc1ccc(CCn2c(O)c(C3=c4ccccc4=NC3=O)sc2=S)cc1OC
-9.7%	CCOc1ncccc1C(=O)OCC(=O)NCc1cccs1
9.1%	COc1ccc(-c2cc(=O)n3[nH]cnc3n2)cc1
-19.7%	O=C(COc1ccccc1)c1cn(CC(=O)N2CCCC2)c2ccccc12
21.3%	COc1ccc(CC(=O)NCC(=O)N/N=C/c2c[nH]c3ccccc23)cc1
-9.7%	CC(=C\c1ccco1)/C=C(\C#N)C(=O)NCCc1c[nH]c2ccccc12
-1.6%	N#Cc1ccc(OCC(O)CN2CCC(C(O)(c3ccccc3)c3ccccc3)CC2)cc1 (stereo not drawn)
-4.3%	COc1ccc(C(C)=O)cc1CC(=O)NCCCn1ccnc1
-8.0%	CSCC[C@H](NC(=O)[C@H](Cc1ccccc1)n1c(=O)[nH]c2ccccc2c1=O)C(=O)N1CCC[C@H]1C(=O)O
-8.7%	O=C(CC1SC(N2CCCCC2)=NC1=O)Nc1cccc(C(F)(F)F)c1 (stereo not drawn)
9.4%	CN(CCCNC(=O)C1CCN(S(=O)(=O)c2cccc3nsnc23)CC1)Cc1ccccc1
-17.9%	Cc1occc1C(=O)Nc1cc(S(=O)(=O)N2CCOCC2)ccc1OC(C)C
-0.1%	CCOC(=O)N1CCN(Cc2nc3ccc([N+](=O)[O-])cc3c(=O)n2-c2ccc(OC)cc2OC)CC1
2.2%	Cc1ccccc1NC(=O)c1ccc(F)c(S(=O)(=O)NC2CCCC2)c1
0.4%	CCCCN(C)C(=O)c1nc2ccccn2c1CN1CCN(C(=O)c2cccs2)CC1
3.7%	CCCCn1c(/N=C/c2c[nH]c3ccccc23)nc2ccccc21

(continued)
VDR inhibitor	SMILES
-4.8%	COc1ccccc1Oc1ccccc1C(=O)O
-12.9%	NCCC1CN(C(=O)OCc2ccccc2)c2ccccc21 (stereo not drawn)
5.4%	O=C(CCNC(=O)c1ccc(Br)cc1)NC1CCCCCC1
0.5%	O=C(CN1C(=O)NC2(CCCC2)C1=O)NNC(=O)c1ccccc1
-18.4%	COCCN1C(=O)C(=O)/C(=C(/O)c2cccc(OC)c2)C1c1ccc(C)o1 (stereo not drawn)
-6.4%	Cc1ccc(C(=O)Nc2cccc(NC(=O)c3cccs3)c2)c(C)c1
-7.7%	O=C(NCc1ccc2c(c1)OCO2)c1ccc(NC(=O)C2CCCO2)cc1 (stereo not drawn)
-11.8%	COc1ccc(C(CNC(=O)C(CCSC)NC(=O)c2ccccc2Cl)N2CCCCC2)cc1 (stereo not drawn)
10.6%	COC(=O)C(Cc1ccccc1)NCC(=O)Nc1cccc(Cl)c1C (stereo not drawn)
-6.1%	O=C(CN1C(=O)NC2(CCOc3ccccc32)C1=O)c1ccc(F)c(F)c1 (stereo not drawn)
5.2%	CCC1CN(C(=O)C2CCN(S(=O)(=O)c3c(C)noc3/C=C/c3ccccc3F)CC2)c2cc(C)ccc2O1 (stereo not drawn)
-10.2%	COc1ccc(S(=O)(=O)N2CCCCCC2)cc1C(=O)N1CCN(c2ccc(F)cc2)CC1
-18.0%	CC(=O)N1CCOc2ccc(S(=O)(=O)Nc3ccc(C)cn3)cc21
-5.2%	Cc1c(N2C(=O)CSC2c2ccco2)c(=O)n(-c2ccccc2)n1C (stereo not drawn)
-2.9%	C[C@H](NC(=O)Nc1cccc(Br)c1)C(=O)O

Part of the list above in another layout:
COc1ccc(S(=O)(=O)N2CCCCCC2)cc1C(=O)N1CCN(c2ccc(F)cc2)CC1
  VDR inhibitor: -10.2%
CC(=O)N1CCOc2ccc(S(=O)(=O)Nc3ccc(C)cn3)cc21
  VDR inhibitor: -18.0%
Cc1c(N2C(=O)CSC2c2ccco2)c(=O)n(-c2ccccc2)n1C (stereo not drawn)
  VDR inhibitor: -5.2%

From PubChem BioAssay

The list is partial (hit frequency here may not be typical).
